YopH PTP inh – YopH (Yersinia) phosphatase inhibition. fluorescence Ex485/Em525. inhibition, %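 (about 10 µM by stock and volumes)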. hit rate 0.16% among 140,000;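 active = inhibition of 50% or more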;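 also: controls were vehicle for no effect and minimum signal wells for full effect; inactives centre near -20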
RecA splice inh – Mtb RecA intein splicing inhibition. AID 2221. cell-free RecA intein splicing, fluorescence. P9WHJ3. hit rate 0.75% among 290,000. inhibition, %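 (about 9 µM by stock and volumes)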; in the data active = inhibition above about 30%; inconclusive = no clear call, values can overlap the other calls;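 also: 0% = vehicle wells and 100% = reference inhibitor control wells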
Target sequence (P9WHJ3 whole entry, looked up, canonical isoform): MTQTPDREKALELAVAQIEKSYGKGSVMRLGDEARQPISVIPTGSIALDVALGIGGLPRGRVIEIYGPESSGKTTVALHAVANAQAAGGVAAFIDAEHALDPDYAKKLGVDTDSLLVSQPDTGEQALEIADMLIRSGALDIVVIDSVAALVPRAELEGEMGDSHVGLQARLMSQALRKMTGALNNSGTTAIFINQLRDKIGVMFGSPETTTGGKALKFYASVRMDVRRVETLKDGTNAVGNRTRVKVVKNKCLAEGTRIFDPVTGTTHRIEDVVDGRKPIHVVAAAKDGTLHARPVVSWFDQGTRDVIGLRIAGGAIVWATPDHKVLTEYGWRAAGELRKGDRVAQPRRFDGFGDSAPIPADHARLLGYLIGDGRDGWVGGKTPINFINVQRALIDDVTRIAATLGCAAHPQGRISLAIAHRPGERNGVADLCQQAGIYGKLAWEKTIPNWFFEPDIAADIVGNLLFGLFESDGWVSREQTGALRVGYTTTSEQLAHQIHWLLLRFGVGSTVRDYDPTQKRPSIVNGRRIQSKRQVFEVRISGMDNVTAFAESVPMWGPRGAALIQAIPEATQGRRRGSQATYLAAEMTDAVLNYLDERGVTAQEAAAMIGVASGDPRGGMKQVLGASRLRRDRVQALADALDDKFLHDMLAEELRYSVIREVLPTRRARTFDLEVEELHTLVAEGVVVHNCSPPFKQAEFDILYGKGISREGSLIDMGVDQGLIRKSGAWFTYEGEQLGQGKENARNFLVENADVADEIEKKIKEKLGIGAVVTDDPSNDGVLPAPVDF
Mtb growth – M. tuberculosis H37Rv growth inhibitors, H37Rv strain (AID 1626); M. tuberculosis H37Rv growth inhibition; higher % means a stronger effect; one-dose inhibition, % at 10 µM; IC50 in µM for titrated hits; hit rate 0.95% among 220,000;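 active = confirmed in a dose series; inconclusive = inhibition above 80% but not taken into the dose series; inactive = below 80% or under 30% at every dose of the series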;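 also: bacteria incubated seven days before Alamar blue readout; 0% = bacteria only wells and 100% = bacteria with antibiotic wells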
Mtb bLac sens – beta-lactam sensitization of Mtb H37Rv | M. tuberculosis H37Rv growth with meropenem, percent inhibition; hits of this screen are not shown here | inhibition, % at 25 µM | hit rate 0.27% among 330,000 | AID 434955;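 active = about 74% or more and at least 40 points above the plate without the antibiotic, then above 30% in a dose series; inconclusive = first-round hits that could not be retested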;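 also: growth measured after seven days incubation then overnight dye step; 0% = bacteria only wells and 100% = bacteria with antibiotic; twin plates without the antibiotic show which effects depend on it; some results filed as inactive read as strong as hits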
Arbovirus inh – antivirals against arbovirus infection. hit rate 0.37% among 200,000. arbovirus infection cell-based antiviral screen. inhibition, % at 10 µM;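 active = inhibition from about 30%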;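 also: bluetongue infection of BSR cells; cell survival read as ATP light after 72 h; 0% = infected wells without compound and 100% = uninfected wells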
Arbovirus inh repeat – also measured in Arbovirus inh; calls as there; inhibition, %; measured here: 10K subset replicate screen; many hits read low in the repeat;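 first of two repeat runs on a subset; 0% = infected and 100% = uninfected wells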
The depositor's hits bear a star; ? = inconclusive; . = no result given. A portion of the library; the hit share may differ from the screen's.

Start of the data: the first four entries, to show the layout:
SMILES	YopH PTP inh	RecA splice inh	Mtb growth	Mtb bLac sens	Arbovirus inh	others
CCN(CC)C(=O)C1=C(C)NC(=O)NC1c1c(F)cccc1Cl (centres undefined)	2	-0.6	-7%	1	5
O=C(CNC(=O)c1cccc(Br)c1)N/N=C/c1cccnc1	.	-3.2	.	10	.
CCS(=O)(=O)N1CCC(C(=O)NCc2ccco2)CC1	-35	-0.8	-5%	4	5
CCOC(=O)N1CCN(S(=O)(=O)c2ccc3[nH]c(=O)sc3c2)CC1	-10	-0.2	-9%	-7	10

The listing, previewed entries included:
SMILES	YopH PTP inh	RecA splice inh	Mtb growth	Mtb bLac sens	Arbovirus inh	others
CCN(CC)C(=O)C1=C(C)NC(=O)NC1c1c(F)cccc1Cl (centres undefined)	2	-0.6	-7%	1	5
O=C(CNC(=O)c1cccc(Br)c1)N/N=C/c1cccnc1	.	-3.2	.	10	.
CCS(=O)(=O)N1CCC(C(=O)NCc2ccco2)CC1	-35	-0.8	-5%	4	5
CCOC(=O)N1CCN(S(=O)(=O)c2ccc3[nH]c(=O)sc3c2)CC1	-10	-0.2	-9%	-7	10
Cn1c(=O)n(C)c2cc(S(=O)(=O)Nc3ccccc3C(=O)O)ccc21	.	0.0	.	1	.
CCN(Cc1ccc(C#CCCO)cc1)CC1CCCN(CCc2cccc(OC)c2)C1 (centres undefined)	.	-0.2	.	3	.
COc1ccc(/C=C/C(=O)c2ccoc2)cc1	-32	-2.7	9%	73	0
COC(=O)c1ccc(CSc2nc3c(cnn3-c3ccc(C)cc3)c(=O)[nH]2)o1	-14	-1.2	0%	6	-8
COc1cc(OC)cc(N(C(=O)c2ccco2)C(C(=O)NC2CCCC2)c2ccc(N3CCOCC3)cc2)c1 (centres undefined)	.	1.9	.	0	.
O=C(OCn1ncc(Cl)c(Cl)c1=O)c1ccc(F)cc1	-34	75*	?	100	-30
CC1CCN(C2CCN(S(=O)(=O)c3ccc(F)cc3)CC2)CC1	14	-0.5	-3%	-17	-9
Cn1nccc1C(=O)Oc1ccc(/C=N/NC(=O)c2ccccc2O)cc1	.	0.5	-7%	92	-14
O=C(O)CC(C(=O)O)N1C(=O)/C(=C/C=C/c2ccco2)SC1=S (centres undefined)	.	-0.9	-5%	11	.
O[C@@H]1CN(Cc2ccc(-n3cccn3)cc2)CC[C@H]1N1CCN(c2ccccc2F)CC1	.	-2.5	.	5	.
COc1ccc(CNC(=O)CCCn2nc(C)n3ccnc3c2=O)cc1	.	-4.9	.	-5	.
CCN(CC(=O)NCc1cccs1)C(=O)CN(C)S(=O)(=O)c1ccc(C)cc1	.	-0.3	.	-3	.
Cc1ccc2cccc(NC(=S)NC(=O)c3ccnn3C)c2n1	-66	-0.2	74%	95	1
Cc1ccc(N2C(=O)c3ccc(C(=O)N4CCN(Cc5ccccc5)CC4)cc3C2=O)cc1	.	2.1	-15%	-6	.
CC(C)(C)n1nc2c(c1NC(=O)CCCc1ccccc1)CS(=O)C2 (centres undefined)	-62	0.8	-3%	-6	-1
CCN1CCN(C(=O)c2cc(COc3ccc(F)cc3F)on2)[C@@H](C)C1=O	.	1.3	.	6	.
CC12C(=O)N(c3ccccn3)C(=O)C1C1C=CC2C1 (centres undefined)	-23	-0.4	-10%	-1	3	Arbovirus inh repeat=4
C#CC[N+]1(CC#Cc2ccc(C)cc2)CCCCC1	-10	-1.6	-4%	2	-9
CCc1c(O)cc2n(c1=O)-c1ccccc1C2(C)C	21	-4.5	-9%	2	1
COc1ccc(CCNC(=O)c2cc(S(=O)(=O)N3CCCCC3)c[nH]2)cc1OC	.	-1.0	.	9	.
Cc1[nH]nc(N=CC2=C(O)CC(C)(C)CC2=O)c1-c1ccccc1	-19	-2.6	1%	-3	-10
CCCCOC(=O)c1ccc(N=Nc2c(C)c(C#N)c(O)[nH]c2=O)cc1	.	0.7	<0.2µM*	94	.
O=C(O)CC/C(=N\Nc1ccc([N+](=O)[O-])cc1S(=O)(=O)N1CCOCC1)c1cccs1	.	-4.8	-16%	-11	.
O=C(Nc1cccnc1)c1cc(Br)c(Br)s1	.	-0.4	.	0	.
CCn1cc(S(=O)(=O)c2ccccc2)c(=O)c2cc(F)c(N3CCN(C)CC3)cc21	.	-3.1	.	-2	.
O=C(NCCC1CC1(Cl)Cl)c1ccc([N+](=O)[O-])cc1 (centres undefined)	.	-0.2	.	1	.
Cc1[nH]c(C)c(S(=O)(=O)NCC(C)c2ccccc2)c1C(=O)N1CCCCC1 (centres undefined)	.	1.3	.	1	.
Cc1cc(C)cc(N2CCCn3c2nc2c3c(=O)[nH]c(=O)n2C)c1	.	0.6	.	4	.
O=C(CSc1nc2ccccc2s1)NCCCN1CCOCC1	-44	-0.8	-5%	7	9
Cc1occc1-c1nnc(SCC(=O)Nc2ccccc2)n1C(C)c1ccccc1 (centres undefined)	-31	1.3	.	-7	-7
Cc1ccc(C(=O)N2c3ccccc3CC2C)o1 (centres undefined)	.	-0.2	2%	15	-5
CCOC(=O)C1CCN(c2c(NCc3ccc(C(=O)NCCC(C)C)cc3)c(=O)c2=O)CC1	-59	-4.2	-9%	-1	-10
COc1ccc(CCNC(=O)c2ccccc2-c2ccccc2C(=O)O)cc1OC	.	-2.0	.	12	.
CCOc1ccc2[nH]c3nc(SCC(=O)NC4CC4)nnc3c2c1	.	2.0	.	-3	.
COc1ccccc1Nc1nnc(SCc2nnc(-c3cc(OC)c(OC)c(OC)c3)o2)s1	-10	0.8	9%	-4	-4
CCc1cccc2c1Sc1ccccc1CC2N1CCNCC1 (centres undefined)	.	2.1	.	96	.
O=C1NC(=O)/C(=C\c2ccc(OCc3cccc(C(=O)O)c3)c(Cl)c2)N1	.	5.4	1%	5	2
Cc1cc(C)nc(NC(=O)c2ccc(C)c([N+](=O)[O-])c2)n1	-39	0.4	0%	10	0
Cc1nnc(SCC(=O)N2N=C(c3ccc(Cl)cc3)CC2c2ccco2)[nH]c1=O (centres undefined)	.	8.1	70%	22	11
CCOC(=O)Nc1ccc2c(c1)N(C(=O)CN1CCN(C)CC1)c1ccccc1S2	16	0.1	13%	-9	3
Cc1cccc(N(Cc2ccccc2)C(=O)c2cc(S(=O)(=O)N3CCOCC3)ccc2F)c1	.	7.7	.	3	.
C=CCSc1nncn1/N=C/c1ccc(OC)cc1	2	0.0	0%	-1	-2
N#CC1=C(N)Oc2c(ccc3cccnc23)C1c1ccccc1 (centres undefined)	.	0.6	7%	6	.
Cc1cc(=O)[nH]c(SCC(=O)NCc2ccc3c(c2)OCO3)n1	.	-2.3	.	-5	.

Reprinted from the part before: 2 entries, followed by the next part.
SMILES	YopH PTP inh	RecA splice inh	Mtb growth	Mtb bLac sens	Arbovirus inh	others
N#CC1=C(N)Oc2c(ccc3cccnc23)C1c1ccccc1 (centres undefined)	.	0.6	7%	6	.
Cc1cc(=O)[nH]c(SCC(=O)NCc2ccc3c(c2)OCO3)n1	.	-2.3	.	-5	.
Cc1cc(C(F)(F)F)n2nc(-c3cccs3)cc2n1	.	-2.7	-8%	-5	.
COc1ccccc1C(=O)Nc1ccnn1C1CCN(Cc2cn(C)c3ccccc23)CC1	.	3.5	.	1	.
Cc1cc(OCCCn2ccnc2)ccc1C(C)C	-14	1.2	9%	6	-4
Nc1ccc(CC2SC(=O)NC2=O)cc1 (centres undefined)	-29	-3.8	-5%	-9	5
Cn1c(NC(=O)c2ccccc2NC(=O)C(C)(C)C)nc2ccccc21	-24	11	97%	87	-4	Arbovirus inh repeat=-20
CCOC(=O)C1(Cc2cccc(OC)c2)CCCN(C(=O)c2cc(CC(C)C)[nH]n2)C1 (centres undefined)	.	1.2	.	3	.
Nc1nc(NCc2ccco2)nc(Nc2cccc(F)c2)c1[N+](=O)[O-]	.	-1.0	15%	-4	.
COC(=O)c1ccc(-n2nnnc2SCc2nn[nH]n2)cc1	2	-2.3	-6%	-6	-2	Arbovirus inh repeat=4
CCOC(=O)/C(C#N)=C/c1c(N2CCCCCC2)nc2ccccn2c1=O	.	5.9	.	-4	.
O=C(CCn1c(=O)oc2ccccc21)Nc1ccccc1	-36	.	-3%	-3	5
COc1cccc(CN2CC(C(=O)NCCC3=CCCCC3)CCC2=O)c1 (centres undefined)	.	0.3	.	0	.
COc1ccc(Nc2c(-c3ccco3)nc3ccc(C)cn23)cc1	.	-3.8	6%	0	6

Retrieved by compound from above:
SMILES	YopH PTP inh	RecA splice inh	Mtb growth	Mtb bLac sens	Arbovirus inh	others
CCOC(=O)C1(Cc2cccc(OC)c2)CCCN(C(=O)c2cc(CC(C)C)[nH]n2)C1 (centres undefined)	.	1.2	.	3	.
Nc1ccc(CC2SC(=O)NC2=O)cc1 (centres undefined)	-29	-3.8	-5%	-9	5
COc1cccc(CN2CC(C(=O)NCCC3=CCCCC3)CCC2=O)c1 (centres undefined)	.	0.3	.	0	.
Cn1c(NC(=O)c2ccccc2NC(=O)C(C)(C)C)nc2ccccc21	-24	11	97%	87	-4	Arbovirus inh repeat=-20
COc1ccc(Nc2c(-c3ccco3)nc3ccc(C)cn23)cc1	.	-3.8	6%	0	6

More records follow.
SMILES	YopH PTP inh	RecA splice inh	Mtb growth	Mtb bLac sens	Arbovirus inh	others
C/C(=N\NC(=O)Cc1ccccc1[N+](=O)[O-])c1cccnc1	.	-5.7	.	-5	.
O=C1CC2(CCN(C(=O)c3ccc([N+](=O)[O-])cc3)CC2)Oc2ccccc21	.	-2.4	.	0	.
CCOC(=O)c1[nH]c(C)c(C(=O)N2CCOCC2)c1C	-25	-0.7	0%	?	5	Arbovirus inh repeat=-5
Cc1ccc2nc(-c3ccc(NC(=O)CCS(=O)(=O)c4ccccc4)cc3)sc2c1	-17	4.3	4%	2	-12
Cc1cccc(OCC(O)Cn2c(=N)n(CCN3CCOCC3)c3ccccc32)c1 (centres undefined)	5	-5.7	2%	4	-10
COc1ccc(CN(C)CC(=O)Nc2c(C)cccc2C)c(OC)c1	.	-0.4	3%	6	-7
COc1ccc(Cc2nnc(NC(=O)C3CCCO3)s2)cc1 (centres undefined)	-52	1.3	-9%	-4	10
Cc1ccc(S(=O)(=O)N(CC(=O)O)Cc2ccccc2F)cc1	-36	2.3	-1%	3	0
COc1ccc(CCNC(=O)C2CCN(C(=O)c3ccc(C(C)(C)C)cc3)CC2)cc1	.	-0.3	.	-4	.
CCN(Cc1nc(-c2ccc(OC)cc2)no1)C(=O)c1ccoc1C	.	3.4	.	0	.
CCOc1ccc(C(=O)Nc2ccc(NC(=O)c3ccco3)c(Cl)c2)cc1Br	-27	3.0	2%	8	-18
O=C(CNC(=O)c1ccccc1)N=Nc1c(O)[nH]c2ccc(Br)cc12	.	3.0	.	-7	.
COC(=O)C1=C(c2cc3ccccc3s2)C[C@@H]2CC[C@H]1N2C(=O)NCc1ccc(F)cc1	.	14	2%	-4	.
COc1cccc(CNC(=O)C2CCCN(S(=O)(=O)c3ccc4c(c3)C(C)(C)C(=O)N4C)C2)c1 (centres undefined)	.	3.8	.	3	.
CC(=O)Nc1ccc(NC(=O)CN(c2ccc(C34CC5CC(CC(C5)C3)C4)cc2)S(C)(=O)=O)cc1	-32	-1.2	-1%	2	-7
O=C(Nc1ccc(N2CCN(C(=O)c3ccco3)CC2)cc1)c1ccc([N+](=O)[O-])cc1Cl	.	-0.6	.	-2	.
O=P(c1ccccc1)(c1ccccc1)C(O)c1ccccn1 (centres undefined)	.	-0.9	-3%	2	.
COc1ccc(CNC(=O)C2CCN(S(=O)(=O)c3ccc4c(c3)NC(=O)CO4)CC2)cc1	.	-3.2	.	-2	.
O=C(Nc1nc2ccccc2s1)C1CCN(S(=O)(=O)c2cc([N+](=O)[O-])ccc2Cl)CC1	.	-5.9	?	99	.
COC(=O)/C(=C(/F)SCC(C)=O)C(F)(F)F	-31	0.0	-11%	7	11
O=C(CSc1nnc(NC(=O)c2ccccc2Cl)s1)NC1CC1	.	0.5	.	0	.
CCNc1ccc(N=Nc2c(C)n(C)n(-c3ccccc3)c2=O)cc1	.	-1.3	0%	2	4
Cc1c(C(=O)N2CCCCC2)c(S(=O)(=O)N2CCc3ccccc32)c(C)n1C	.	-1.6	.	4	.
CC1(C)Cc2c(sc3nc4n(c(=N)c23)CCC4)CO1	31	-1.0	-4%	-7	7
CCCCCC(=O)N=Nc1c(O)[nH]c2ccc([N+](=O)[O-])cc12	-26	0.2	-3%	1	5
O=C(Nc1ccnn1C1CCN(Cc2cccc(OCCO)c2)CC1)C1CCCC1	.	-2.8	.	-3	.
COc1cc(CNC2CCCCCCC2)cc(Cl)c1OCC(N)=O	.	-3.5	.	6	.
COC(=O)c1cc(C(=O)c2cc(Br)ccc2O)coc1=N	.	-3.0	9%	-7	7
